VDR inh: blocks the human vitamin D receptor; 400,000 compounds, 0.93% hits; VDR-SRC2-3 peptide fluorescence polarization, 2 h; Potency, µM, without a hit: max response, negative = inhibition, hits mostly inhibitors; P11473; AID 504847; active = well fitted inhibition curve with a large enough effect; inconclusive = small, poorly fitted or top-dose-only effect, or another doubt; inactive = no such curve, though single readings can be large or run the other way; also: series mostly up to about 120 µM
Target sequence (P11473 whole entry, looked up): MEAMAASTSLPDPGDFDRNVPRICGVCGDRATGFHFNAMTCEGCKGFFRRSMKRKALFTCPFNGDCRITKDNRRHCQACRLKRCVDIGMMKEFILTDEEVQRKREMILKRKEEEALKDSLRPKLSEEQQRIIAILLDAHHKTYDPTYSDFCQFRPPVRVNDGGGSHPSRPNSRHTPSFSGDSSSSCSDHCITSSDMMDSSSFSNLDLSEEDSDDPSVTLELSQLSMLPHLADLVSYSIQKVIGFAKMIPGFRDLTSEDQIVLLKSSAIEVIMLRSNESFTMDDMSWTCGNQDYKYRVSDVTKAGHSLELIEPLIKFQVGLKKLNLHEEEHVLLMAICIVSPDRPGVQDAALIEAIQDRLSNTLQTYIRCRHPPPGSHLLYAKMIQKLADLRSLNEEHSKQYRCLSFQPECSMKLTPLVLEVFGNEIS
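Signal is fluorescence polarization, reporting how far test compounds block the interaction of VDR with the SRC2-3 coregulator peptide after a 2 h room-temperature incubation.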
* marks the source's active call; other numbers are inactive results; ? = inconclusive; & = joins results of further samples. % is scaled to controls: 0 for no effect and ±100 for the full control effect; potency is read from the fitted curve at half-maximal effect. The list is partial; count on the stated rates, not on these rows.

VDR inh,structure
3.9%,O=C(CCN1C(=O)c2ccccc2C1=O)Nc1ccccn1
-1.1%,Cc1ccc(NC(=O)CN(c2ccccc2F)S(C)(=O)=O)cc1
-9.1%,O=C(CSC1=Nc2ccccc2C2=NC(CC(=O)NC3CCCCC3)C(=O)N12)Nc1ccc(F)cc1 (stereo not given)
?,O=C(Nc1nc2c(F)cc(F)cc2s1)C1CC(=O)N(Cc2ccco2)C1 (stereo not given)
0.5%,COc1ccc(CNC2CC(=O)N(C)C2=O)cc1 (stereo not given)
-9.2%,CC1CCCCC12NC(=O)N(CC(=O)NC(=O)Nc1ccc3c(c1)OCCO3)C2=O (stereo not given)
-7.9%,CC(C)(C)C(=O)NC1(C(F)(F)F)N=C2SCCN2C1=O (stereo not given)
-3.5%,Cn1c(CN2CCOCC2)nnc1SCC(=O)Nc1nccs1
-0.5%,COc1ccc(C)cc1NC(=O)C(OC(=O)c1cc(C)oc1C)c1ccccc1 (stereo not given)
7.8%,Cc1sc2ncn(CC(=O)NCCCN3CCC(C)CC3)c(=O)c2c1S(=O)(=O)N1CCC(C)CC1
0.2%,C=CCSc1nnc2nc3[nH]c4c(C)cccc4c3nn12
0.5%,O=C(Nc1cccc(C(=O)OCc2cc(=O)n3nc(C4CC4)sc3n2)c1)c1ccc(F)cc1
8.2%,CCOc1ccc(NC(=O)c2nc3nc(C)cc(C(F)F)n3n2)cc1
-9.8%,CCOC(=O)C1CCN(C(=O)CN2C(=O)C(CC)Oc3ccccc32)CC1 (stereo not given)
11.6%,O=C1NC(=Nc2ccc(Cl)cc2)/C(=C/c2ccco2)S1
-4.1%,COc1ccccc1N1CCN(C(=O)CN(C)S(=O)(=O)c2cc(C)ccc2OC)CC1
-3.4%,COc1ccc(OCc2nc(C#N)c(NCCCn3ccnc3)o2)cc1
14.0%,O=C1CCc2ccc(NS(=O)(=O)c3ccc(F)cc3)cc2N1
8.2%,CCOC(=O)Nc1nc(C)c(C(=O)c2ccc(Cl)cc2)s1
8.0%,Cc1ccc(-c2noc(CCC(=O)Nc3cc(C)ccn3)n2)cc1
-9.3%&-2.1%,CCCN(C(=O)Cn1ncc2c(=O)oc3ccccc3c21)c1cccc(C)c1
-17.8%,CNc1nc(N2CCc3ccccc32)ncc1F
6.3%,O=C(NCc1ccccn1)C1CC(=O)N(C2CCCC2)C1 (stereo not given)
-0.8%,O=C(Nc1ccc(S(=O)(=O)Nc2nccs2)cc1)C1CCCCC1
-13.7%,Cc1ccc(C(=O)N/C(=C/c2ccc(-c3ccc([N+](=O)[O-])cc3)o2)C(=O)NCCCN(C)C)cc1
-8.3%,CCC1(C)CC2(CCCN(CCC(O)(c3ccccc3)c3ccccc3)C2)CCO1 (stereo not given)
-7.3%,CCn1c(=S)sc2c(=O)[nH]c(C)nc21
-2.7%,Fc1cccc(Cl)c1CSc1nnnn1-c1ccc2c(c1)OCO2
-17.5%,O=C(COC(=O)[C@@H]1CCCN1C(=O)c1cccs1)Nc1ccc(F)cc1[N+](=O)[O-]
0.7%,O=C(NCc1n[nH]c(=S)n1-c1ccc(Cl)c(Cl)c1)c1ccco1
-8.5%,Cc1cc(C)c(S(=O)(=O)N2CCCOC2CNC(=O)C(=O)NCc2ccccn2)c(C)c1 (stereo not given)
-14.6%,COc1ccc(-n2cccc2C=O)cc1
-6.4%,COc1ccc(-c2nc(CSCC(=O)NC3CC3)c(C)o2)cc1OC
1.0%,CCn1c(Cc2ccccc2)nnc1SCC(=O)Nc1ccc2c(c1)OCO2
-8.8%,Cc1cnc(C(=O)OCC(=O)c2csc(N3CCCCC3)n2)cn1
10.3%&11.0%,CCc1ccc(NC(=O)c2c(C(=O)Nc3ccccc3)sc3nc(C)cc(=O)n23)cc1
3.4%,COC(=O)c1ccccc1NC(=O)CSc1nnc(-c2cccnc2)n1N
10.3%,CCOC(=O)c1c(C)[nH]c(C)c1S(=O)(=O)N1CCC(C(=O)Nc2ccc(C)c(N(C)C)c2)CC1
15.4%,CCCNC(=O)c1cccc(COc2ccccc2OC)c1
15.8%,S=C(NC1CCCC1)NC1CC1
-19.4%,CCn1cc(C(=O)NCCC2=CCCCC2)c(=O)c2cc(S(=O)(=O)N(C)C)ccc21
-22.0%,O=C(NCc1ccc(OC(F)(F)F)cc1)c1cccc2c1C(=O)c1ccc(N3CCC(Cc4ccccc4)CC3)cc1S2(=O)=O
0.8%,O=C(Nc1ccc(O)c2c(=O)cc(-c3cccc(Cl)c3)oc12)c1ccccc1Cl
-4.5%,COCCCNC(=O)Nc1ccc(F)cc1F
-25.8%,Cc1cccc(NC(=O)C(=O)NCC2CCCN2S(=O)(=O)c2cccs2)c1C (stereo not given)

Some of these compounds in order of their number in VDR inh, high to low.
VDR inh,structure
8.0%,Cc1ccc(-c2noc(CCC(=O)Nc3cc(C)ccn3)n2)cc1
6.3%,O=C(NCc1ccccn1)C1CC(=O)N(C2CCCC2)C1 (stereo not given)
3.4%,COC(=O)c1ccccc1NC(=O)CSc1nnc(-c2cccnc2)n1N
-4.1%,COc1ccccc1N1CCN(C(=O)CN(C)S(=O)(=O)c2cc(C)ccc2OC)CC1
-8.8%,Cc1cnc(C(=O)OCC(=O)c2csc(N3CCCCC3)n2)cn1
-22.0%,O=C(NCc1ccc(OC(F)(F)F)cc1)c1cccc2c1C(=O)c1ccc(N3CCC(Cc4ccccc4)CC3)cc1S2(=O)=O

(cont.)
VDR inh,structure
0.6%,Cc1ccc(NC(=O)COC(=O)CCc2nc3ccccc3c(=O)[nH]2)cc1Cl
-7.7%,CC[C@]1(C(=O)OC)[C@H]2C(=O)N(Cc3ccccc3)C(=O)[C@H]2[C@H]2CN(C)C(=NCc3ccccc3)N21
5.3%,COc1cc(CNc2ccc3[nH]c(=O)[nH]c3c2)ccc1OCc1ccc(F)cc1
1.0%,Cc1cc(C)n2nc(C(=O)NNC(=O)c3ccccc3)nc2n1
11.7%,COC(=O)c1cc(Cl)c(NC(=O)c2cc3ccccc3o2)cc1OC
8.3%,O=C(CCCc1ccccc1)Nc1ccnn1C1CCN(Cc2ccccc2)CC1
7.1%,COc1cc(CNCC(C)C)c(Br)cc1OCC(=O)NCc1ccccc1
?,Cc1ccc(-c2cc[n+](Cc3ccccc3)cc2)cc1
4.6%,CC1(C)CC(=O)C(C=NCCN2CCNCC2)=C(O)C1
11.9%,Cc1ccc(CNC(=O)Cn2c(=O)cc(C)c3c(C)nn(-c4cccc(F)c4)c32)cc1
6.7%,CC1CCCN(C(=O)CSc2nc3ccccc3o2)C1 (stereo not given)
-6.1%,CCn1c(Oc2ccccc2C)nc2c1c(=O)n(C)c(=O)n2C
-18.6%,CCN1C(C)=CC(=O)[C@@H](O)[C@H]1c1ccccc1Br
6.0%,O=C(NCc1ccco1)c1ccc2c(=O)n(Cc3ccco3)c(SCC(=O)N3CCCC3)nc2c1
-5.1%,CCCn1nnnc1NCc1ccccc1OCc1cccs1
3.4%,COc1ccccc1N(CC(=O)NCCSCc1ccco1)S(=O)(=O)c1ccccc1
4.2%,Nc1ccc(-c2nnc(-c3ccc(N)cc3)o2)cc1
?,CCCc1cc(=O)oc2cc(OC(=O)CN3C(=O)NC4(CCCC4)C3=O)ccc12
-9.6%,CC1CN(C(=O)CSc2nc(-c3ccc(F)cc3)cs2)CC(C)O1 (stereo not given)
-5.4%,N#Cc1ccc(C#Cc2ccc3oc4ccccc4c(=O)c3c2)cc1
-12.7%,Cc1cc(NC(=O)CSc2nccn2-c2cccc(Cl)c2)no1
17.5%,CC(=O)Nc1ccc(C(=O)COC(=O)CCc2ccccc2)c(F)c1
3.7%,COc1ccc(/C=N/NC(=O)c2ccc(C)nc2)cc1O
-4.9%,COc1ccc(CC(=S)N2CCOCC2)cc1F
13.9%,CN(C)C(=O)C1C2NC(=S)N(c3ccc(Cl)cc3)C1(C)Oc1ccc(Cl)cc12 (stereo not given)
6.9%,Cn1c(=O)[nH]c(=O)c2c1nc(CN1CCOCC1)n2Cc1ccccc1
-16.7%,COc1ccc2[nH]c(CN3CCN(CCC(C)C)C(CCO)C3)c(C)c2c1 (stereo not given)
15.8%,Cc1ccc(S(=O)(=O)N2CCN(c3nc(-c4ccccc4)nc4ccccc34)CC2)cc1
-12.6%,Cc1ccc(S(=O)(=O)N2CCOCC2)cc1C(=O)OC1CCCCC1=O (stereo not given)
-1.6%,O=C(NCc1cccs1)c1ccc(Cl)c(S(=O)(=O)N2CCCC2)c1
6.9%,C=CCNC(=S)N1CCN(c2cc3c(cc2F)c(=O)c(C(=O)O)cn3CC)CC1
3.7%,COc1ccc(COC(=O)C2=C(C)NC(=O)NC2c2ccc(OC)cc2)cc1 (stereo not given)
4.7%,CC(C)Oc1ccc(Cn2c(=O)oc3ccccc32)cc1
-5.1%,CC(=O)Nc1ccccc1-c1nnn(CC(=O)Nc2ccc3c(c2)OCCO3)n1
?,O=C1CC[C@H](O)CCN1[C@H](CSc1ccc(Br)cc1)Cc1ccccc1
-5.8%,O=C1CN(C(=O)CNCc2cccc(Cl)c2)c2ccccc2N1
-16.5%,Cc1ccc(S(=O)(=O)N2[C@@H](c3ccccc3)C(C(=O)O)=CC[C@H]2c2ccc3c(c2)OCO3)cc1
-4.5%,NC(=O)CSc1nccn1Cc1ccccc1
-3.8%,CCc1cccc(CC)c1NC(=O)C[n+]1cccc(C(N)=O)c1
-9.2%,Cc1ccc(C)c2c1cc(C)c1nnc(SCC(=O)N3CCCc4ccccc43)n12
-10.0%,CC(C)Cn1c(N)c(C(=O)CSc2nnc(C3CC3)n2C2CC2)c(=O)n(C)c1=O
-0.2%,CN1CCN(C(=O)OCCOCCOC(=O)N2CCN(C)CC2)CC1
39.8µM*,Fc1ccc(Nc2ncnc3ccc(-c4ccoc4)cc23)cc1
12.5%,Cc1ccc(C2(C(F)(F)F)NC(=O)N3N=C4CCCCCN4C3=C2C#N)cc1 (stereo not given)
?,FC(F)(F)c1ccccc1-c1nccc(NCCN2CCOCC2)n1
9.1%,CC(NC(=O)Nc1ccccc1)C(c1cccs1)N1CCOCC1 (stereo not given)
-16.7%,O=C(O)c1ccc(/C=N/Nc2ncc(C(F)(F)F)cc2Cl)cc1
-5.8%,CCC(=O)N1CCc2cc(S(=O)(=O)NC(C(=O)NCc3ccc(OC)cc3)C(C)C)ccc21 (stereo not given)
-4.5%,COc1ccc(CN(C)C(=O)C2CCN(C(=O)Nc3ccccc3)CC2)cc1
-15.4%,COc1cc(C(Nc2ccccn2)c2c(NC(=O)c3ccco3)sc(C)c2C)cc(OC)c1OC (stereo not given)
19.7%,Cc1cccc(C)c1OCCNC(=O)c1ccc2ccccc2n1
1.0%,Cc1ccc(S(=O)(=O)N(C)c2ccc(C(=O)N3CCCCC3)cc2)cc1
-4.6%,CC(C)CN1CCC(=O)N(CCSc2ccccc2)CC1
3.3%,O=C(c1ccccc1)C1CCN(c2ncccc2[N+](=O)[O-])CC1
11.5%,Cc1c(C(=O)NCc2cccs2)oc2ccc(S(=O)(=O)N3CCOCC3)cc12
-25.4%,CC1=NN(c2ccc(S(=O)(=O)O)cc2C)C(=O)C1
-1.4%,COc1cccc(-c2nccc(-n3ccnc3)n2)c1
-9.5%,CCCCN(C(=O)c1cc(-c2ccco2)nc2ccccc12)c1c(N)n(CCC)c(=O)[nH]c1=O
22.7%,CCOC(=O)c1cc(-c2ccc(OC)cc2)n(CCC(=O)NCCc2ccc(OCC)c(OCC)c2)c1C
-7.1%,CCOC(=O)CN1C(=O)N[C@@H](c2ccccc2)[C@@H](C(=O)OC)[C@H]1C

The listing continues.
VDR inh,structure
-13.8%,C/C(=N\Nc1c(F)c(F)c(Br)c(F)c1F)c1ccncc1
-16.9%,N#Cc1c(NC(=O)CSc2nc3c(c(C(F)(F)F)n2)CCc2ccccc2-3)sc2c1CCCC2
-26.5%,O=C(CCNC(=O)c1ccccc1Cl)NCC12CC3CC(CC(C3)C1)C2
7.6%,CN(C(=O)CSc1nnc2ccccn12)c1c(N)n(Cc2ccccc2)c(=O)[nH]c1=O
-15.6%,CCOc1cc(C(=O)Nc2ccc(S(=O)(=O)NC3=NCCCCC3)cc2)cc(Br)c1OC
-3.5%,O=[N+]([O-])c1ccc(Cl)c(/C=N/n2c(C3CCCCC3)n[nH]c2=S)c1
1.4%,Cc1ccc(C(=O)N2CCN(S(=O)(=O)c3ccccc3)CC2)s1
-1.7%,CCN(CC)c1ccc(C(=O)NNC(=O)CCNC(=O)c2ccccc2)cc1
-11.3%,COc1ccccc1-c1cc(C(=O)Nc2c(C)nn(Cc3ccc(Cl)cc3)c2C)no1
-18.2%,CCCc1ccc2c(N)c(C#N)sc2n1
6.3%,Cc1c(Cl)cnc(NC(=O)COC(=O)c2ccc3ncsc3c2)c1Cl
0.6%,O=[N+]([O-])c1ccc(Cl)cc1N1CCCC1
0.5%,O=C(NCc1ccccc1Cl)C(=O)NCC1OCCCN1S(=O)(=O)c1cccs1 (stereo not given)
-10.6%,C=CCn1c(O)c(N=NC(=S)Nc2ccccc2F)c2cc(S(=O)(=O)N3CCOCC3)ccc21
0.8%,COc1ccc(C(=O)CCC(=O)O)c2ccccc12

Some of the entries above in a different format:
mol	VDR inh
Cc1cc(C)c(S(=O)(=O)N2CCCOC2CNC(=O)C(=O)NCc2ccccn2)c(C)c1 (stereo not given)	-8.5%
COc1ccc(-n2cccc2C=O)cc1	-14.6%
COc1ccc(-c2nc(CSCC(=O)NC3CC3)c(C)o2)cc1OC	-6.4%

(more compounds)
VDR inh,structure
4.6%,CC1=C(C)CC(C(=O)NCC(=O)c2ccccc2)C(C(=O)O)C1 (stereo not given)
-0.1%,CCc1ccccc1NC(=O)CN(C)C(=O)c1cc(C2CC2)nc2c1cnn2C(C)C
-9.9%,COc1ccc(-c2noc(N3CCC(C(=O)NCCCN4CCCC(C)C4)CC3)n2)cc1 (stereo not given)
2.5%,CS(=O)(=O)Nc1ccccc1C(=O)O
-2.6%,CCc1ccc(C2c3[nH]c4ccccc4c3CCN2C(=O)CNC(N)=O)cc1 (stereo not given)
-3.7%,CCN(CC)C(=O)Oc1ccc2ccccc2c1Cl

Assay outcomes: PubChem BioAssay, National Center for Advancing Translational Sciences (NCATS)
